# High-throughput results: PubChem BioAssay, National Center for Advancing Translational Sciences (NCATS)
# Menin MLL FP FL = menin-MLL binding inhibition, fluorescein peptide; Fluorescence polarization, fluorescein-MLL peptide displacement from menin; FP activity change, % at 61.4 µM; 290,000 tested, under 10 active; AID 1766; inconclusive = falling polarisation curve, or a change in total fluorescence; inactive = total fluorescence flat and polarisation flat or rising; no compound was filed as active; the % refers to the polarisation; negative = inhibition;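 note: % of control where 0% means no effect; inhibitors lower the polarisation; unlabelled MLL peptide was the positive control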
# PINK1 modulator = changes PINK1 expression; PINK1 immunofluorescence, high-content cytometry, 24 h; Potency, µM (doses to about 76.6 µM), without a hit: at the top dose activation (PINK1 increase), actives largely listed as activators; 0.2% of 410,000 active; AID 624263; active = well fitted activation curve with a large enough effect; inconclusive = small, poorly fitted or top-dose-only effect; inactive = flat fitted curve, though single readings scatter; cell line not stated here;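 note: potency is the fitted concentration of half-maximal effect; % of control where 0% means no effect; nearly all actives have a fitted effect of over 65% in size; a mitochondrial uncoupler was the plate control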
#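 Compound titrations (5 concentrations, 24 h) on a stable cell line; DMSO and CCCP controls. Endpoint: fixed-cell PINK1 immunofluorescence with mitochondrial, cell and nuclear markers, scanned by microplate cytometer.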
# D2 agonist = agonists of human D2 dopamine receptor (beta-arrestin); DiscoveRx PathHunter D2 beta-arrestin, luminescence, 90 min; 100% = 57 uM dopamine signal; activation, % (test concentration not listed); 0.084% of 360,000 active; in the data active = activation above about 40%; inconclusive = about 15% to 40%; inactive = below about 15%; note: compound concentration not given in the record; the text of the record calls up to 30% inactive
# Target sequence (P14416 whole entry, looked up): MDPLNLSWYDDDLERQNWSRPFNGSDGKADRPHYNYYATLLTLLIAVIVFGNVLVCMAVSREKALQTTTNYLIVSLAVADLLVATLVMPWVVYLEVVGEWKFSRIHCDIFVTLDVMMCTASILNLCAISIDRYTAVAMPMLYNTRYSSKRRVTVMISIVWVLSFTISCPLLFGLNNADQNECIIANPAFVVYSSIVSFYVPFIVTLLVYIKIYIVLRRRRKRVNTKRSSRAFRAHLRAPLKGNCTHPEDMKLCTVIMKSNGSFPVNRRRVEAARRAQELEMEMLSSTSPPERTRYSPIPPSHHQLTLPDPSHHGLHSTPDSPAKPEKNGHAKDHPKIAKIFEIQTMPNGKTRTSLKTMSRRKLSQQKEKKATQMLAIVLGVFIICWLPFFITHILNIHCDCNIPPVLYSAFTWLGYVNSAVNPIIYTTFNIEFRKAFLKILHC
#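 Agonist mode: compounds alone added to overnight-plated D2 PathHunter cells for 90 min at 37 C, with 57 uM final dopamine (EC100) defining full response. Beta-arrestin recruitment detected by chemiluminescent reagent, read after 1 h at ambient temperature.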
# Sfp inh = Sfp phosphopantetheinyl transferase inhibition; 3.5% of 310,000 active; Potency, µM, for the others: max response, negative = inhibition, most hits filed as inhibitors; Biochemical Sfp PPTase activity, qHTS; Q9F4F7; active = well fitted inhibition curve with a large enough effect; inconclusive = small, poorly fitted or top-dose-only effect, or another doubt; inactive = no such curve, though single readings can be large or run the other way;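 note: the enzyme is Sfp with the accession as filed and its product quenches rhodamine fluorescence; potency is the fitted concentration of half-maximal effect; 0% = enzyme reaction without inhibitor and -100% = no enzyme wells; top concentration of the series not given in the record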
#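 With Hepes-Na pH 7.6 buffer containing 10 mM MgCl2, Sfp (15 nM) modified BHQ-2-YbbR (12.5 uM) using rhodamine-CoA (5 uM). Two reads 30 minutes apart at 525/598 nm yielded each well's rate.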
# gsp ag = activates gsp, the McCune-Albright syndrome mutation; AID 624287; 0.13% of 340,000 active; Potency, µM (series often up to 76.9 µM), without a hit: top-dose activation (cAMP increase), most hits filed as activators; gsp mutant cells, cAMP HTRF, 30 min; control for the full effect not named in the record; active = well fitted activation curve with a large enough effect; inconclusive = small, poorly fitted or top-dose-only effect, or another doubt; inactive = no such curve, though single readings can be large or run the other way; cell line not stated here;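 note: phosphodiesterase inhibitor Ro 20-1724 added with compounds to block cAMP breakdown; potency is the fitted concentration of half-maximal effect; nearly all actives have a fitted effect of over 60% in size; about a fifth of the inactives were tested at one dose only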
#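 Cells in DMEM/10% FBS with G418 were pretreated with compounds in DMSO plus […] (300 uM stock) for 30 min at 37C. cAMP was measured by HTRF (cAMP-d2 plus anti-cAMP antibody-K) after 30 min at room temperature.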
# gsp antag = antagonizes gsp, the McCune-Albright syndrome mutation | 0.4% of 340,000 active | gsp-mutant cells, cAMP HTRF, 30 min; control for the full effect not named in the record | Potency, µM (highest dose often 76.9 µM), for the others: at the top dose activity change, negative = inhibition, hits mostly inhibitors | AID 624288; active = falling curve of any shape with a large fitted effect; inconclusive = falling curve, mostly with a smaller effect; inactive = flat or rising curve; cell line not stated here;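 note: intracellular cAMP measured with PDE inhibitor Ro 20-1724 present during compound exposure; potency is the fitted concentration of half-maximal effect; % is set by controls: 0 for no effect and ±100 for the full control effect; nearly all actives have a fitted effect of over 65% in size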
#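 HTRF cAMP read-out (cAMP-d2 plus anti-cAMP antibody-K in lysis buffer, 30 min RT). Before lysis, cells are exposed to compounds with […] for 30 min at 37C in DPBS containing Ca/Mg, BSA and Tween 20.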
# ClpP mod = qHTS Assay for Activators of ClpP | ATP-dependent Clp protease proteolytic subunit (Bacillus subtilis (strain 168)), P80244 | purified B. subtilis ClpP, FRET peptide cleavage, 20 min | Potency, µM (top dose mostly 57.5 µM), inactives show at the top dose activity change, negative = active | 1.9% of 340,000 active; active = well fitted falling curve with a large enough effect; inconclusive = small, poorly fitted or top-dose-only effect; inactive = no such curve, though single readings can be large or run the other way; note: potency is the fitted concentration of half-maximal effect; the source files actives as falling curves though it sought activators and does not explain the sign; nearly all actives have a fitted effect of over 65% in size; many hits overshoot -100%
# Target sequence (P80244 whole entry, looked up): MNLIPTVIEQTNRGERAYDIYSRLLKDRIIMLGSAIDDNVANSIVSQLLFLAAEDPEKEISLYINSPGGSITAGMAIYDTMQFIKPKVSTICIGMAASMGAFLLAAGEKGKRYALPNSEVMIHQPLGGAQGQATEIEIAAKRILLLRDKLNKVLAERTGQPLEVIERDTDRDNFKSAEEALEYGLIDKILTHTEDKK
#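 ClpP 10 microg/mL final, pH 8 Tris/KCl buffer with BSA, glycerol, Tween-20; compound pinned in; FRET-FV substrate; RT 20 min; Ex320/Em430; ΔFRET vs ADEP 5.8 microM, DMSO, no enzyme.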
# Numbers without * were called inactive; ? = inconclusive; / = not tested or not shown; [ ] = dose if it differs, or a comment.
SMILES,Menin MLL FP FL,PINK1 modulator,D2 agonist,Sfp inh,gsp ag,gsp antag,ClpP mod
Cc1cc(C)cc(NC(=S)NCC2CCN(C(C)c3ccccc3)C2)c1 (stereo unspecified),-2.6,4.0%,-3.5,-6%,-13%,9%,/
CCn1c(CC(=O)Nc2ccc(Cl)c(Cl)c2)nnc1SCc1ccc(Cl)cc1,-3.7,2.1%,-5.4,9%,-13%,2%,-3.2%
N#Cc1c(C#N)c(O)c2ccccc2c1O,?,0.2%,?,13µM*,-25%,-9%,-0.8%
CCc1nc(SCC(=O)Nc2ccccc2Cl)n[nH]1,0.0,0.2%,-4.4,-4%,-10%[15.4 µM],6%,/
CNc1cncc(-c2ccc(NS(C)(=O)=O)cc2)n1,/,0.1%,-1.5,/,/,/,4.8%
COc1ccc(-c2csc(C(C)(O)c3cccnc3)n2)cc1 (stereo unspecified),/,0.5%,5.7,/,/,/,-0.8%
NC(=O)CSc1nnc(-c2cccc(S(=O)(=O)N3CCOCC3)c2)o1,/,-0.6%,-3.0,/,-7%,/,-5.7%
Cc1nc(Nc2ccccc2F)c2nnn(Cc3ccccc3Cl)c2n1,0.9,11%,7.3,8%,-17%,3%,12%
COCc1cc(C)nc(N2CCCCC2)c1C#N,-1.9,10%,2.9,11%,-6%,8%,22µM*
CCCn1c(SC(C)C(=O)NCC2CCCO2)nc2cc(Cl)ccc2c1=O (stereo unspecified),/,0.4%,-1.7,/,-11%[15.4 µM],-3%,-9.7%
O=C(Nc1nc(-c2ccc(F)c(F)c2)cs1)Nc1ccc(F)cc1F,5.5,3.9%,6.5,-7%,?,13%,-3.1%
O=C(NN1CCOCC1)c1ccccc1,/,0.6%,2.7,14%,9%,10%,-0.5%
Cc1c([N+](=O)[O-])c(C(=O)NC2CCCC2)nn1C,4.2,0.1%,-1.4,9%,?,-1%,0.4%
Cc1noc(C)c1C(=O)N1CCC1(C)C(=O)NS(=O)(=O)Cc1cccc(Cl)c1 (stereo unspecified),/,0.4%,-5.5,/,/,/,0.2%
CC(=O)N1CCC(=NNC(=O)c2cc3ccccc3cc2O)CC1,/,0.1%,11,-4%,8%,?,-0.4%
CSCC[C@H](NC(=O)OC(C)(C)C)C(=O)N1CCC(C(=O)N[C@@H](C)C(=O)NC(C)c2ccccc2)CC1 (stereo partly specified),2.5,1.9%,-6.2,16%,/,4%,2.4%
CCCCOC(=O)c1ccc(NC(=O)C(CCS(C)(=O)=O)NC(C)=O)cc1 (stereo unspecified),4.4,2.5%,4.9,14%,-33%[inhibitor],9%,-2.4%
CCN(CC)S(=O)(=O)c1cccc(-c2nnc(C(=O)c3ccc(C(F)(F)F)cc3)o2)c1,4.2,12%[38.3 µM],1.8,6%,-16%,-6%,1.8%
C=Cc1ccc(C(=O)N2CCCC(CCC(=O)N3CCN(c4ccccn4)CC3)C2)cc1 (stereo unspecified),/,2.1%,-1.1,9%,19%,-12%,-5.1%
O=C(Nc1nccs1)C12CC3CC(C1)CC(C(=O)Nc1nccs1)(C3)C2,1.2,1.5%,-0.9,0%,-42%[inhibitor],-12%,1.0%
NC(=O)C1CCN(C(=O)c2cc3ccccc3cc2O)CC1,/,-0.3%,2.1,/,-7%[15.4 µM],7%,-3.2%
O=C(COC(=O)c1ccco1)Nc1nc2c(F)c(F)c(F)cc2s1,1.5,4.0%,2.4,18%,4%,7%,/
Cc1ccc2c(CC(=O)NCCc3ccc(S(N)(=O)=O)cc3)coc2c1,2.5,-1.9%,2.5,14%,-11%[15.4 µM],0%,/
O=C(Cn1c(=O)[nH]c2ccccc2c1=O)Nc1cccnc1,-3.1,0.1%,6.6,10%,24%,3%,-13%
CN1CCN(S(=O)(=O)c2cccc(C(=O)Nc3cc(C(F)(F)F)ccc3N3CCCC3)c2)CC1,/,2.2%,-2.4,/,7%,8%,0.2%
COc1ccc(CCNc2oc(-c3ccc(OC)c(OC)c3)nc2C#N)cc1,-0.1,-1.7%[38.3 µM],-2.2,?,-21%,-1%,-9.4%
CN(C)c1ccc(-c2cncnc2-n2ccnc2)cc1,0.4,-1.3%,/,-26%,/,/,/
CCOC(=O)Cn1nc(C)c(NC(=O)COc2ccc([N+](=O)[O-])cc2)c1C,-0.7,-0.5%,-6.9,17%,18%[15.4 µM],15%,/
CCOC(=O)Cn1c(CN2CCN(C(c3ccccc3)c3ccccc3)CC2)nc2c1c(=O)n(C)c(=O)n2C,5.7,4.5%,-7.7,-1%,24%,-17%,-4.6%
CCOC(=O)c1c(NC(=O)Cn2cnc([N+](=O)[O-])n2)sc2c1CCC(C)C2 (stereo unspecified),0.8,9.8%,0.7,1%,-6%,5%,3.4%
CCOC(=O)c1c(C)oc2c1c(C(c1cccnc1)N1CCOCC1)c(O)c1ccccc12 (stereo unspecified),4.3,-0.2%,10,?,0%,5%,-0.5%
COc1cccc(-c2ccc3ncnc(N4CCOCC4)c3c2)c1,-5.4,-0.2%,/,1%,/,/,/
O=C(Nc1ccc(Oc2ccccc2)cc1)c1ccc2sc([C@H]3C[C@H](O)[C@@H](CO)O3)nc2c1,/,?,?,/,/,/,-21%
CC1(C)CC(=O)C=C(c2cccc(OC(=O)c3ccc(-c4ccccc4)cc3)c2)C1=O,/,1.4%,-10,/,-9%,/,-0.6%
COC(=O)CCN(C(=O)c1ccc(C)c([N+](=O)[O-])c1)c1ccccn1,1.2,2.5%,-5.1,11%,-27%,5%,/
Cc1ccc2occ(/C=N/NC(N)=S)c(=O)c2c1,1.3,3.1%,-2.1,-14%,?,-9%,1.1%
O=C(Nc1ccccc1)N1CCn2c(nc3ccccc32)C1,-1.5,2.0%[38.3 µM],0.0,25%,-13%,5%,-5.5%
CCOCCOC(=O)C1=C(C)N(C)C(=O)NC1c1cc(Cl)c(O)c(OCC)c1 (stereo unspecified),4.9,-1.3%,-0.6,-6%,-6%,-6%,-2.0%
CN1CCCCC1=NCCCn1cnc2c1c(=O)n(C)c(=O)n2C,1.8,-3.0%[38.3 µM],-0.2,19%,?,4%,-1.6%
Nc1nc(-c2ccc3c(c2)OCCO3)cs1,2.5,-0.7%,-3.4,-22%,-17%,11%,-0.4%
Cn1nnnc1SCC(=O)Nc1ccc(Oc2ccccc2)cc1,2.7,-4.3%,0.5,6%,-9%,6%,-1.5%
COc1ccc(S(=O)(=O)NCCCCCC(=O)O)cc1C(=O)O,-3.6,3.5%,-3.4,?,-38%,16%,0.3%
CC(Sc1nnc(-c2ccco2)n1-c1ccccc1)C(=O)NCC1CCCO1 (stereo unspecified),/,-1.5%,0.6,/,9%,9%,-2.4%
CCOC(=O)c1c(-c2ccc(OC)cc2)oc2ccc(OCC(N)=O)cc12,2.8,4.6%,?,8%,-2%,-21%,3.5%
O=C(Cc1ccc(S(=O)(=O)N2CCOCC2)s1)N1CCN(S(=O)(=O)c2cccc(F)c2)CC1,/,1.2%,0.5,/,16%,-13%,-0.9%
COc1cccc(NC(=O)CN(C)C(=O)c2ccc(S(=O)(=O)Nc3ccccc3C)cc2)c1,/,-0.1%,7.5,/,1%,-17%,-2.3%
Cc1cc(=O)[nH]c(SCc2ccccc2)n1,0.3,1.5%,-1.2,16%,-28%,-1%,/
C#CCn1cnc2c(cnn2-c2ccc(C)c(C)c2)c1=O,2.4,1.2%,-1.8,-15%,-8%,0%,-3.5%
COc1cc(NC(=S)NCCN2CCOCC2)cc(OC)c1,5.3,1.1%,-2.6,-4%,3%,13%,1.9%
CCOc1ccc(CCNC(=O)COC(=O)COc2ccccc2C)cc1OCC,/,1.1%,-2.9,/,7%[15.4 µM],2%,1.9%
COc1cccc(CNC(=O)N2CCN(S(=O)(=O)c3ccc(C)cc3)CC2)c1,-3.1,0.2%,1.6,-2%,0%[15.4 µM],0%,/
Cc1cc([N+](=O)[O-])cc2c1NC(=O)C2(O)N1CCCC(C)C1 (stereo unspecified),7.7,2.2%,-2.6,8%,-21%,-2%,2.0%
Cc1ccc(/C=C2/NC(=O)N(c3ccccc3)C2=O)o1,?,-0.4%,-5.1,25µM*,-21%,-9%,0.2%
COCC(C)NC(=O)c1cc2cc(OC)ccc2[nH]1 (stereo unspecified),-6.5,2.4%,-5.2,-24%,-1%[15.4 µM],5%,-1.8%
Cc1cc(C)c(NC(N)=S)c(C)c1,-1.7,0.8%,-5.1,20%,20%[15.4 µM],-14%,-1.8%
O=C(C[C@H]1C[C@H]2c3cc(NS(=O)(=O)c4ccc(F)cc4)ccc3O[C@H]2[C@H](CO)O1)NCc1cc(F)ccc1F,/,0.6%,-5.5,/,9%,/,-1.9%
CCCCCN(C(=O)CCC(=O)OCC(=O)N1CCCCC1C)c1c(N)n(CCCC)c(=O)[nH]c1=O (stereo unspecified),0.1,1.5%,-2.3,0%,-40%[inhibitor],5%,-1.0%
CC(=O)N1c2ccc(S(=O)(=O)NCC3CCC(C(=O)NCc4ccc(C)cc4)CC3)cc2CC1C (stereo unspecified),5.5,0.0%,4.4,14%,-18%,-15%,0.4%
COc1ccc(S(=O)(=O)Nc2ccc3cn[nH]c3c2)cc1[N+](=O)[O-],/,-1.6%,-4.8,/,-39%[inhibitor],3%,-3.0%
CC(=O)OCC1=C(C(=O)OC(C)(C)C)N2C(=O)[C@@H](NC(=O)Cc3ccccc3)[C@H]2SC1,/,0.4%,-1.7,/,/,0%,1.9%
Cc1cccc(NC(=O)c2cc3c(n(-c4ccccc4)c2=O)CCCC3=O)n1,-1.8,-1.0%,0.0,-4%,?,-1%,0.8%
Cn1c(=O)c2c(nc(CN3CCN(c4ccccc4)CC3)n2CCN2CCOCC2)n(C)c1=O,-1.2,-0.8%[38.3 µM],-3.1,-3%,17%,3%,-3.2%
N#CCCn1c(=O)c(CCc2ccccc2)nc2cnc(N3CCOCC3)nc21,?,1.0%,/,7%,/,/,/
